High-throughput results as filed in PubChem.
NS1 inh: qHTS Assay for Inhibitors of Influenza NS1 Protein Function. S. cerevisiae slowed by influenza A NS1, growth recovery by OD600. Potency, µM (highest dose often 46.1 µM), for inactives: top-dose activity, positive = more growth. 0.4% of 270,000 active; note: actives are rising curves; nearly all actives have a fitted effect of over 50% in size
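Recovery from NS1-induced slow growth read by OD600 in budding yeast switched to galactose assay medium (pH 6.0, -URA) at 1:100 dilution. Compound 23 nl per well; the matching strain lacking NS1 serves as control.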
MARV entry inh: qHTS for inhibitors of binding or entry into cells for Marburg Virus. Marburg virus pseudotyped entry inhibition, cell reporter; control for the full effect not named in the record; about a third of the inactives were read at about 46 µM. Potency, µM (doses to about 37.8 µM), for inactives: at the top dose activity change, negative = inhibition, hits mostly inhibitors. 1.8% of 300,000 active. AID 540276, 2011; active = well fitted inhibition curve with a large enough effect; inconclusive = small, poorly fitted or top-dose-only effect, or effect the other way; inactive = flat fitted curve, though single readings scatter; tested in HEK293 cells; about a fifth of its hits are not listed in these tables; note: % is set by controls: 0 for no effect and ±100 for the full control effect; luciferase read-out
Lassa entry inh: qHTS for Inhibitors of binding or entry into cells for Lassa Virus | Lassa virus pseudotype entry inhibition, cell reporter; control for the full effect not named in the record | Potency, µM (doses to about 37.9 µM), for the others: at the top dose activity change, negative = inhibition, hits mostly inhibitors | 1.2% of 300,000 active | AID 540256, 2011; active means well fitted inhibition curve with a large enough effect; inconclusive means small, poorly fitted or top-dose-only effect, or effect the other way; inactive means flat fitted curve, though single readings scatter; tested in HEK293 cells; note: % is set by controls: 0 for no effect and ±100 for the full control effect; nearly all actives have a fitted effect of over 50% in size; luciferase read-out
Cruzain Triton: qHTS Assay for Promiscuous and Specific Inhibitors of Cruzain (with detergent) | Potency, µM, without a hit: max response, negative = inhibition, usual class: inhibitors | purified cruzain, Z-FR-AMC fluorescence, 0.01% Triton | 0.43% of 200,000 active | AID 1478, 2009 | Cruzipain (Trypanosoma cruzi), P25779; active = well fitted curve in the direction sought with a large enough effect; inconclusive = small, poorly fitted or top-dose-only effect, or another doubt; inactive = no such curve, though single readings can be large; an effect the other way counts as inactive or inconclusive;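 note: plate controls were neutral wells for no effect and buffer without enzyme for full effect; nearly all actives have a fitted effect of over 40% in size; top concentration of the series not given in the record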
Target sequence (P25779 123-467 limits assumed): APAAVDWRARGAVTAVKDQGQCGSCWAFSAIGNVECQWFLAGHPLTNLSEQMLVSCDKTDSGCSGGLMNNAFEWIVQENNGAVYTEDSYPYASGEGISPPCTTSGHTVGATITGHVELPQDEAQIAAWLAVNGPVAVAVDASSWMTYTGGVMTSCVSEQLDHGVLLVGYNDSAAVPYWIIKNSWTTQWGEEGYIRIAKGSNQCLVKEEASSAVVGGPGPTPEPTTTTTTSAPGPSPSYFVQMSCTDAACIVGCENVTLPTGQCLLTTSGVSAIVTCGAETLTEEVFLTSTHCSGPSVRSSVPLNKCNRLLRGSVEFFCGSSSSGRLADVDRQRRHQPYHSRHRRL
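Compounds were screened in titration against cruzain (1.5 nM) with 0.01% Triton X-100 to counter colloidal aggregation. Activity was the AMC fluorescence increase over 60 s after adding 2 uM Z-FR-AMC at pH 5.5.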
2A StopGo: High Throughput Screening for Foot and Mouth Disease Virus Antivirals; human cells with a luciferase reporter of 2A StopGo recoding; control for the full effect not named in the record; Potency, µM (doses to about 57.9 µM), without a hit: at the top dose signal change, negative = less light; 1.2% of 410,000 active; AID 1159524, 2015; active = well fitted falling curve with a large enough effect; inconclusive = small, poorly fitted or top-dose-only effect; inactive = no such curve, though single readings can be large or run the other way; tested in HEK293T cells; note: % is set by controls: 0 for no effect and ±100 for the full control effect; nearly all actives have a fitted effect of over 45% in size; luciferase light after 4 h
Cruzain noTriton: qHTS Assay for Promiscuous and Specific Inhibitors of Cruzain (without detergent); purified cruzain, Z-FR-AMC fluorescence, no detergent; Potency, µM, inactives show max response, negative = inhibition, usual class: inhibitors; 2.3% of 200,000 active; AID 1476, 2009; active = well fitted curve in the direction sought with a large enough effect; inconclusive = small, poorly fitted or top-dose-only effect, or another doubt; inactive = no such curve, though single readings can be large; an effect the other way counts as inactive or inconclusive;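 note: plate controls were enzyme without inhibitor for no effect and buffer without enzyme for full effect; nearly all actives have a fitted effect of over 40% in size; top concentration of the series not given in the record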
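Purified cruzain at 1.5 nM, pre-incubated 15 min with compound at room temperature in 100 mM sodium acetate pH 5.5, 5 mM DTT, 0.00005% Triton X-100. Reaction started with 2 uM Z-FR-AMC; AMC fluorescence increase over 60 s gives rate.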
RE007 growth inh: qHTS Assay for Inhibitors of the HIV-1 protein Vpr; S. pombe RE007 Vpr strain, BacTiter-Glo ATP luminescence, 24 h; control for the full effect not named in the record; Potency, µM (series often up to 92.2 µM), for inactives: at the highest dose activity change, negative = less growth; 0.21% of 360,000 active; AID 651644, 2012; active = well fitted falling curve with a large enough effect; inconclusive = small, poorly fitted or top-dose-only effect; inactive = no such curve, though single readings can be large or run the other way;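 note: % is set by controls: 0 for no effect and ±100 for the full control effect; nearly all actives have a fitted effect of over 50% in size; the assay follows cell death caused by Vpr and the record does not say whether a fall means rescue or toxicity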
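Fission yeast RE007 carrying one integrated HIV-1 vpr copy, seeded at OD 0.01 in PMG+AL medium with 23 nL pinned compound. Grown 24 h at 30 degrees; viability read by BacTiter-Glo luminescence after 5 min.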
SARS PLpro yeast: qHTS of Yeast-based Assay for SARS-CoV PLP; Potency, µM (doses to about 32.9 µM), without a hit: at the highest dose activity, positive = growth rescue; S. cerevisiae expressing SARS-CoV PLpro, growth rescue; control for the full effect not named in the record; 0.19% of 330,000 active; AID 485353, 2010; note: 0% is about no effect; nearly all actives have a fitted effect of over 55% in size; growth read by luminescence after 48 h
An asterisk follows results filed as active; u = inconclusive; x = not tested or not shown; & = joins results of further samples; [ ] = another dose, or the depositor's remark. Unless noted, calls come from the whole dose curve; as a rule, active means well fitted rising curve with a large enough effect; inconclusive means small, poorly fitted or top-dose-only effect; inactive means no such curve, though single readings can be large or run the other way. Potency is the fitted concentration of half-maximal effect.

Value order: Cruzain Triton	Cruzain noTriton	SARS PLpro yeast	RE007 growth inh	Lassa entry inh	NS1 inh	2A StopGo	MARV entry inh
- C=CCSc1nc(N)c2c3c(sc2n1)CN(C)CC3
  x	x	0%	1%	x	2%	24%	x
- O=C(O)c1ccc(Oc2ccc(C(F)(F)F)cn2)cc1
  x	x	0%	3%	14%	x	17%	u
- CC1(C)CC(=O)C2=C(C1)N(c1ncn[nH]1)C(N)=C(C#N)C2c1ccccc1 (stereo unspecified)
  -4.4%	11%	-22%	-14%	16%	-2%	-15%	20%
- CCOC(=O)C(CC)n1nnc2sc(-c3ccccc3)cc2c1=O (stereo unspecified)
  -11%	-2%	x	x	u	x	-4%	25%[46.1 µM]
- CSc1ncccc1C(=O)NCC12CC3CC(CC(C3)C1)C2
  x	x	-1%	2%	-2%	x	-14%	11%[14.2 µM]
- Cc1cccc(NC(=O)CCN2CCN(C)CC2)c1
  x	x	5%	-4%	u	-9%	-5%	15%
- O=C(O)C1CSC(c2ccco2)N1 (stereo unspecified)
  x	x	0%	9%	10%	10%	34%[activator]	-28%[46.1 µM]
- Fc1cccc(NC(=S)NC2CCCCCCC2)c1
  x	x	-14%	8%	x	-106%	-6%	x
- Cc1nc2cc(C(=O)OCC(=O)NC3CCS(=O)(=O)C3)ccc2n1-c1ccccc1 (stereo unspecified)
  1.0%	-4%	11%	-5%	15%	-1%	2%	20%
- COc1ccccc1/C=C/c1nc(C#N)c(NC(C)c2ccccc2)o1 (stereo unspecified)
  2.3%	-28%	x	x	u	x	-14%	u
- COc1cc(CCC(=O)OCC(=O)N(CCC#N)c2ccccc2)cc(OC)c1OC
  x	x	-9%	-3%	2%[46.1 µM]	-5%	-5%	-6%[46.1 µM]
- COc1cc(/C=C2/SC(=S)N(Cc3ccccc3)C2=O)cc(OC)c1O
  x	x	-5%	0%	7%	u	u	u
- COc1ccccc1NC(=O)Cc1noc(CSc2cc(C)c3ccccc3n2)n1
  2.6%	-14%	-3%	-1%	12%	-36%	-12%	-11%&-11%
- CN1CCc2c(sc3nc(SCC(N)=O)n(-c4ccccc4)c(=O)c23)C1
  -2.8%	-2%	-3%	-4%	-8%	14%	5%	-4%
- Cc1cccc(NC(=O)CSc2ccc(-c3cccs3)nn2)c1C
  1.0%	-9%	-2%	-17%	7%	3%	12%	u
- O=C(Nc1ccc(Cl)c(Cl)c1)N1CCCCCC1
  x	x	1%	0%	-1%[46.1 µM]	6%	38%[activator]	u
- Cc1cc(F)ccc1NC(=O)Cn1nc(N2CCN(c3ccccc3)CC2)ccc1=O
  -0.1%	26%	x	x	-6%[46.1 µM]	x	-19%	x
- O=C(Nc1ccc(Br)cc1)C1CCCC1
  x	x	-9%	-14%	5%	-16%	12%	9%
- Cc1ccnc(NS(=O)(=O)c2ccc(NC(=O)c3cncc(Br)c3)cc2)n1
  2.0%	-1%	5%	-1%	10%	8%	-3%	-1%
- Cc1cc([N+](=O)[O-])c(Cl)cc1NC(=O)C(C)C
  -1.4%	-5%	-10%	-9%	2%	8%	-23%	7%
- CCC(CC)C(=O)Nc1cccc(C(=O)NCCc2ccccc2)c1
  x	x	17%	-3%	x	1%	37%[activator]	x
- Cc1ccc(NC(=O)CCc2ccc(C)o2)c(Br)c1
  x	x	u	-5%	17%	-6%	64%[activator]	-5%
- CC(C)(C)Nc1nc(Nc2ccc([N+](=O)[O-])cc2)nc(NC(C)(C)C)n1
  x	x	-6%	3%	14%	8%	u	u
- COc1cc(OC)c(NC(=O)C(C)n2c(=O)cc(-c3ccccc3)c3c(C)nn(C)c32)cc1Cl (stereo unspecified)
  -2.2%	u	x	x	-17%[46.1 µM]	x	-22%	x
- COc1ccc(CCN2C(=O)CC(Nc3ccc(N4CCOCC4)cc3)C2=O)cc1OC (stereo unspecified)
  -1.0%	u	x	4%	-8%	-3%	u	u
- COC(=O)/C=C1/S/C(=N/NC(=O)c2ccccc2C)NC1=O
  5.2%	-7%	4%	4%	19%	16%	-15%	5%
- CC(C)CN1CC(C(=O)O)CC1=O (stereo unspecified)
  x	x	-2%	13%	8%	-6%	-11%	28%&28%[46.1 µM]
- O=C1C2=C(c3ccccc31)[N+](=O)[C@@H]1CCCC[C@@H]1N2[O-]
  -2.1%	-2%	-9%	1%	7%	-46%	x	6%
- COCCN(C(=O)Cc1cccs1)C(C(=O)NCc1ccc(OC)cc1)c1ccc(C(C)C)cc1 (stereo unspecified)
  -10.0%	-21%	-17%	10%	u	-18%	x	u
- COc1ccccc1N(CC(=O)NCCc1ccccc1)C(=O)CCC(=O)Nc1nccs1
  x	x	-2%	-3%	u	-28%	-15%	-22%[46.1 µM]
- COc1ccccc1CN(Cc1ccco1)S(=O)(=O)c1ccc(-n2cnnn2)c(OC)c1
  -1.4%	19%	0%	3%	u	-32%	x	0%&-22%
- Cc1cccc(OCC(=O)NCC(=O)N=Nc2c(O)[nH]c3ccc([N+](=O)[O-])cc23)c1
  x	x	-3%	4%	11%[46.1 µM]	-17%	-1%	u
- N#Cc1ncc(-c2ccc3c(c2)OCCOCCOCCOCCOCCO3)nc1C#N
  -9.7%	-7%	18%	9%	u	-71%	10%	u
- O=C(c1ccc(Cl)cc1)C1CCCN(Cc2cccc3ncccc23)C1 (stereo unspecified)
  x	x	-1%	-13%	x	-1%	u	x
- CC(=O)Nc1ccc(NC(=O)CC2(CC(=O)N3CCOCC3)CCCC2)cc1
  x	x	1%	4%	-6%	x	-13%	25%
- O=C(COc1ccc(Cl)cc1)NC1=NN(c2ccccc2)C(=O)C1
  -5.4%	u	-14%	4%	x	u	-11%	x
- COc1cc(C2OC(=O)c3ccccc3S2)cc(OC)c1OC (stereo unspecified)
  x	x	-1%	12%	7%[46.1 µM]	5%	-3%	0%[46.1 µM]
- Cc1ccc(NC(=S)NC(=O)C2CCC2)cc1C
  x	x	-4%	-28%	u	-7%	36%[activator]	-5%[46.1 µM]
- COc1cccc(CC2(CO)CCN(Cc3cn(C)nc3C)CC2)c1
  x	x	0%	-5%	6%[46.1 µM]	5%	-20%	1%[46.1 µM]
- COc1cc(NC(=O)CN2CCN(S(=O)(=O)c3ccc(C(C)C)cc3)CC2)cc(OC)c1
  1.9%	u	-2%	8%	-1%	-53%	0%	u
- CCOc1ccccc1-c1nc(-c2ccc(NC(=O)c3ccc(Br)o3)cc2)no1
  3.4%	-26%	-6%	0%	u	-6%	u	u
- NC1=NC(c2ccc(Br)cc2)n2c(nc3ccccc32)N1 (stereo unspecified)
  -1.4%	-19%	3%	-5%&-10%	1%[46.1 µM]	4%	10%&-26%	-14%[46.1 µM]
- CCOc1ccc(CCNC(=O)COC(=O)Cc2ccc(OC)c(OC)c2)cc1OCC
  x	x	5%	-1%	19%	x	-6%	2%[46.1 µM]
- COc1ccc(C2CC(=O)Oc3c(C(CCN4CCCCC4)c4ccc(N(C)C)cc4)c(OC)cc(OC)c32)cc1 (stereo unspecified)
  x	x	0%	-14%	x	-31%	-20%	x
- COc1c(CC=C(C)C)cc(C2CC(=O)c3c(O)cc(O)cc3O2)cc1CC=C(C)C (stereo unspecified)
  x	x	-4%	-3%	x	12%	u	x
- CCC(C)NC(=O)C1CC(=O)N(CCc2ccc(F)cc2)C1 (stereo unspecified)
  x	x	5%	-6%	6%	16%	-10%	22%
- CC(=O)Nc1ccc(NC(=O)Cn2cc3c(n2)CCCC3)cc1
  3.4%	-11%	5%	3%	-1%	4%	11%	0%
- CC(=O)Nc1ccc(C(=O)/C=C/c2ccco2)cc1
  -23%	-4%	-1%	-28%	-8%	18%	41%[activator]	-6%
- COc1ccc(Cl)cc1NC(=O)C1CSC(c2ccncc2)=N1 (stereo unspecified)
  -3.3%	5%	-11%	-11%	-23%	-25%	-4%	-11%
- O=C(O)CN1C(=O)COc2cc(S(=O)(=O)N3CCCC3)ccc21
  1.5%	1%	6%	2%	x	-7%	-5%	x
- CC(Oc1ccc(F)cc1)C(=O)NCC1(N(C)C)CCCCC1 (stereo unspecified)
  1.7%	-5%	x	x	2%[46.1 µM]	x	u	-1%[46.1 µM]
- O=C(CSc1nc2ccccc2n1CC(=O)N1CCCC1)N1CCN(C(=O)c2ccco2)CC1
  -3.0%	-6%	-4%	-19%	5%	0%	x	10%
- CCOc1c(Br)cc(/C=C2\C(=O)N(CCC#N)N=C2C)cc1OC
  -2.8%	u	14%	-28%	-5%	7%	28µM*	-18%
- O=C(Cc1c(F)cccc1Cl)N/N=C/c1cccnc1
  x	x	0%	-11%	x	10%	-10%	x
- Cc1ccc(NC(=O)CSc2nccn2Cc2ccco2)cc1
  x	x	u	-10%	12%	-15%	3%	18%
- CC(C)c1ccc(NC2CCCN(C(=O)CCCn3cncn3)C2)cc1 (stereo unspecified)
  x	x	-2%	1%	1%	6%	-20%	7%
- CCCCN(C)Cc1c(C)[nH]c2c(ccc3ccccc32)c1=O
  x	x	0%	8%	x	-2%	1%	x
- CCOC(=O)C1CCN(C(=O)COC(=O)COc2ccc(Cl)cc2)CC1
  x	x	-4%	-12%	2%[46.1 µM]	x	-12%	u
- CN=C1S/C(=C\c2cn(CC(=O)OC)c3ccccc23)C(=O)N1C
  x	x	-1%	-14%	11%	x	7%	-20%[46.1 µM]
- Cc1ccc(S(=O)(=O)CC(=O)Nc2sc(C)c(C)c2C(N)=O)cc1
  x	x	u	-8%	-28%	x	-13%	0%[46.1 µM]
- CCO[C@@H]1OC(C(=O)O)=C[C@H](C)[C@H]1CCCO
  x	x	0%	0%	x	2%	-4%	x
